gsp ag: activates gsp, the McCune-Albright syndrome mutation. gsp mutant cells, cAMP HTRF, 30 min; control for the full effect not named in the record. Potency, µM (top dose mostly 76.9 µM), for inactives: at the top dose activation (cAMP increase), hits mostly activators. 340,000 tested, 0.13% active; active = well fitted activation curve with a large enough effect; inconclusive = small, poorly fitted or top-dose-only effect, or another doubt; inactive = no such curve, though single readings can be large or run the other way; cell line not stated here;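 also: phosphodiesterase inhibitor Ro 20-1724 added with compounds to block cAMP breakdown; potency is read from the fitted curve at half-maximal effect; nearly all actives have a fitted effect of over 60% in size; about a fifth of the inactives were tested at one dose only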
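Cells stably selected in G418 were plated at 2000/well, grown 16-24 hr, then given compounds in DMSO with the PDE inhibitor […] (300 uM solution added) for 30 min at 37C; cAMP was read by HTRF.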
gsp antagonist: antagonizes gsp, the McCune-Albright syndrome mutation | gsp-mutant cells, cAMP HTRF, 30 min; control for the full effect not named in the record | Potency, µM (top dose mostly 76.9 µM), for the others: at the top dose activity change, negative = inhibition, actives largely listed as inhibitors | 340,000 tested, 0.4% active; active = falling curve of any shape with a large fitted effect; inconclusive = falling curve, mostly with a smaller effect; inactive = flat or rising curve; cell line not stated here;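 also: intracellular cAMP measured with PDE inhibitor Ro 20-1724 present during compound exposure; potency is read from the fitted curve at half-maximal effect; % is scaled to controls: 0 for no effect and ±100 for the full control effect; nearly all actives have a fitted effect of over 65% in size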
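G418-selected cells were plated in DMEM/10% FBS for 16-24 h at 37C, then treated with compounds plus the PDE inhibitor […] (300 uM solution added) for 30 min at 37C. Intracellular cAMP was measured by HTRF after 30 min lysis at room temperature.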
Menin MLL FP FL: menin-MLL binding inhibition, fluorescein peptide | Fluorescence polarization, fluorescein-MLL peptide displacement from menin | FP activity change, % at 61.4 µM | 290,000 tested, under 10 active; inconclusive = falling polarisation curve, or a change in total fluorescence; inactive = total fluorescence flat and polarisation flat or rising; no compound was filed as active; the % refers to the polarisation; negative = inhibition;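 also: % of control where 0% means no effect; inhibitors lower the polarisation; unlabelled MLL peptide was the positive control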
CtBP-E1A inh: blocks the CtBP interaction with E1A. AlphaScreen GST-E1A/His-CtBP binding, 1536-well; stronger effect = lower value; control for the full effect not named in the record. activity change, % (test concentration not listed). 340,000 tested, 0.49% active. AID 651724; in the data active means activity change below about -65%; inconclusive means about -30% to -65%; inactive means above about -30%; also: % is scaled to controls: 0 for no effect and ±100 for the full control effect; compound concentration not given in the record
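In 5 uL wells, 23 nL compound meets equimolar GST-E1A and His-CtBP (5X stock 125 nM each) for 2 h, 37 °C. Beads (5X, 50 ug/mL) then 1 h, 37 °C, dark.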
Sfp inh: inhibitors of Bacillus subtilis Sfp phosphopantetheinyl transferase | 310,000 tested, 3.5% active | Biochemical Sfp PPTase activity, qHTS | AID 1490 | Potency, µM, without a hit: max response, negative = inhibition, most hits filed as inhibitors; active = well fitted inhibition curve with a large enough effect; inconclusive = small, poorly fitted or top-dose-only effect, or another doubt; inactive = no such curve, though single readings can be large or run the other way;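 also: the enzyme is Sfp with the accession as filed and its product quenches rhodamine fluorescence; potency is read from the fitted curve at half-maximal effect; 0% = enzyme reaction without inhibitor and -100% = no enzyme wells; top concentration of the series not given in the record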
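Compounds were incubated with enzyme (final 15 nM) for 15 min at room temperature before substrate addition started the reaction. Fluorescence at 525 nm excitation, 598 nm emission was recorded immediately and after 30 minutes.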
TRPV1 potentiator: human TRPV1 potentiation; Q8NER1; 320,000 tested, 0.02% active; TRPV1-expressing cells, Fluo-8 calcium influx, capsaicin EC20 potentiation; host cell line not named in the record; control for the full effect not named in the record; potentiation, % at 8.33 µM; active means potentiation above 80%; inconclusive means 30% to 80%; inactive means below 30%; also: 0% is about no effect
Target sequence (Q8NER1 whole entry, looked up): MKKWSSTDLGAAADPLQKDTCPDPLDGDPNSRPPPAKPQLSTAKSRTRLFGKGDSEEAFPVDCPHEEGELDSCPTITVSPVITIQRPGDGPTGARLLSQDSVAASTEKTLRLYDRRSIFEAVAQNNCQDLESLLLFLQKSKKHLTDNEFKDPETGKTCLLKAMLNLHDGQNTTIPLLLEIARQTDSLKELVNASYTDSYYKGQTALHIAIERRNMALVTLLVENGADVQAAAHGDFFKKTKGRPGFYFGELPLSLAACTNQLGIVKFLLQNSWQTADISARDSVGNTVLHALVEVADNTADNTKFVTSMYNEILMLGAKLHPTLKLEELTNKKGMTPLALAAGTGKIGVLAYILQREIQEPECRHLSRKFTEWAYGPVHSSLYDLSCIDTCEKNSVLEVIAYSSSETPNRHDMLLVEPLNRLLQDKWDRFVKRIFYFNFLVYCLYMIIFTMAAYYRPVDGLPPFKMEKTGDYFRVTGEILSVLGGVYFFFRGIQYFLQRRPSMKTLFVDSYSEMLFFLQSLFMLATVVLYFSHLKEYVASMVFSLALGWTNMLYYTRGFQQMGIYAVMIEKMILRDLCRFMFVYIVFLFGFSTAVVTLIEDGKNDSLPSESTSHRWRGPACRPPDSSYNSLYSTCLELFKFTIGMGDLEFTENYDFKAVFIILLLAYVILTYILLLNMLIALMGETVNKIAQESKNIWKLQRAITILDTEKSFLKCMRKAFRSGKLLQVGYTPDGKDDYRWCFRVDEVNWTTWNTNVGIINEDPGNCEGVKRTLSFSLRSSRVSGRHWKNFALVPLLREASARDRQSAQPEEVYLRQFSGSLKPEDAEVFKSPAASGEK
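Cells expressing TRPV1 were dye-loaded with Fluo-8 and read kinetically: 10 s baseline, 3 min after compound (agonist portion), then 2 min after EC20 capsaicin (allosteric enhancer portion). Calcium-bound dye fluorescence at 480/520 nm.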
ClpP mod: qHTS Assay for Activators of ClpP; purified B. subtilis ClpP, FRET peptide cleavage, 20 min; AID 651965, 2013; 340,000 tested, 1.9% active; Potency, µM (highest dose often 57.5 µM), for inactives: at the highest dose activity change, negative = active; active = well fitted falling curve with a large enough effect; inconclusive = small, poorly fitted or top-dose-only effect; inactive = no such curve, though single readings can be large or run the other way; also: potency is read from the fitted curve at half-maximal effect; the source files actives as falling curves though it sought activators and does not explain the sign; nearly all actives have a fitted effect of over 65% in size; many hits overshoot -100%
Target sequence (P80244 whole entry, looked up): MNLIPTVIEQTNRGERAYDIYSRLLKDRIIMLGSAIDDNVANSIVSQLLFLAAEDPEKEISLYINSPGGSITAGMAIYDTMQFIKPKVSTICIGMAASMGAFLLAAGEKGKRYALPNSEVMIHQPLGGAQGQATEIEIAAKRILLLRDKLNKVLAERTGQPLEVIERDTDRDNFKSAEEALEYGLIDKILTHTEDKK
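FRET quenching reversal measured ClpP activation: 10 microg/mL B. subtilis ClpP at pH 8 with the FRET-FV decapeptide, read at 430 nm after 320 nm excitation. The 20-min minus 0-min signal was scaled between DMSO/no-enzyme wells and ADEP (5.8 microM final).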
Active calls of the source: *; ? = inconclusive; nt = not tested or not shown; & = joins results of further samples; [ ] = another dose, or the depositor's remark.

Molecule	gsp ag	gsp antagonist	Menin MLL FP FL	CtBP-E1A inh	Sfp inh	TRPV1 potentiator	ClpP mod
COc1cc(C2=NOC(C(=O)N3CCOCC3)C2)cc(OC)c1OC (configuration not stated)	5%	10%	1.5	0	3%	6	-3.7%
CC(C)(C)C(=O)Nc1ccc(S(=O)(=O)N2CCCC2)cc1	-1%[15.4 µM]	-3%	0.1	0	25%	20	-0.3%
Cn1c2ccccc2c2c(C(=O)N3CCN(C(=O)c4ccco4)CC3)cn(C3CCCCC3)c(=O)c21	0%	-28%	0.5	-1	-2%	-4	3.4%
CCCCC1OC2(C)OC(=N)C1(C#N)C(C#N)(C#N)C2c1ccccc1 (configuration not stated)	-34%	-8%	?	-3	21%	7	32µM*
COc1ccc2nc(C(F)(F)Cl)c(C#N)c(N)c2c1	-8%	-7%	-1.6	nt	20%	nt	-1.2%
Cc1cccc(N2CCN(C(=O)c3cc4ccccc4oc3=O)CC2)c1C	-11%	2%	1.9	-11	-3%	?	-4.0%
CC(C(=O)O)N(C(=O)c1ccccc1)c1ccc(F)cc1 (configuration not stated)	-62%[inhibitor]	-7%	-7.3	1	27%	6	nt
COc1ccc(CCNC(=O)Cn2c(-c3nonc3N)nc3ccccc32)cc1OC	-36%[inhibitor]	?	6.5	-7	-5%	0	-0.2%
c1ccc2nc(NN=C3CCCCC3)ccc2c1	2%	-1%	nt	-4	nt	nt	?
O=C(O)CCC(=NNC(=O)c1cccc(S(=O)(=O)N2CCCCC2)c1)c1ccccc1	7%	-1%	nt	3	nt	nt	2.4%
C=CCC1(CC=C)CCCN1C(=O)c1cc(COc2ccc(-n3cncn3)cc2)on1	16%	?	nt	-3	-10%	5	-0.1%
CC(c1ccccc1)N1C(=O)c2ccc(C(=O)Nc3ccccc3C(=O)O)cc2C1=O (configuration not stated)	-1%	16µM*	nt	-14	-2%	1	-0.3%
CCOc1ccc(-c2cc(CCCC(=O)Nc3cccc(OC)c3)no2)cc1	-1%	1%	-0.9	-4	8%	-12	-7.8%
CC(Sc1nc(-c2ccccc2)cc(C(F)(F)F)n1)C(=O)NCCN1CCOCC1 (configuration not stated)	-36%[inhibitor]	-20%	-1.6	13	20%	3	0.3%
CC(=O)NC(=O)c1ccc(-c2ccc(Cl)cc2)o1	?	-4%	10	0	5%	9	nt
O=C1/C(=C/c2cccs2)SC(=S)N1CCC(=O)N1CCCCC1CCO (configuration not stated)	?	-15%	nt	?	-12%	4	0.7%
Cc1ccc(-n2nnnc2-c2cccc(C)c2)cc1	-7%[15.4 µM]	4%	5.3	16	-2%	-7	-2.7%
CC(C)(C)OC(=O)N1CCC(NC(=O)c2[nH]cnc2C(=O)Nc2ccc(Cl)cc2)CC1	11%	-7%	nt	-19	nt	-2	-3.5%
Cc1cccc(C)c1OCC(=O)NCc1ccccc1	-36%[inhibitor]	4%	5.5	12	5%	-16	-0.1%
CC(Cc1cccs1)NC(=S)Nc1ccc(Cl)cc1 (configuration not stated)	-24%	4%	1.3	-19	-6%	-13	nt
COc1ccc(-c2cc(C(F)(F)F)nc(-n3ccnc3C)n2)cc1	13%	6%	0.6	-4	0%	-5	-26%
Cc1ccc(C2NC(=O)c3sc(=S)n(-c4ccccc4)c3N2)cc1 (configuration not stated)	-17%	-15%	6.6	-11	40µM*	1	-0.8%
CCC(=O)/C=C1\Sc2ccc(OC)cc2N1CCO	4%	-3%	2.0	5	-7%	-3	-5.7%
CC1CCN(S(=O)(=O)c2ccc(NC(=O)C3CCCCC3C(=O)O)cc2)CC1 (configuration not stated)	20%[15.4 µM]	-12%	nt	?	nt	nt	nt
C#CCOCCOCCOCCNc1nc(N2CCN(C(=O)[C@H](CCC(=O)O)n3cc([C@@H](N)[C@H](C)CC)nn3)CC2)nc(N2CCN(C(=O)[C@H](CCC(=O)O)n3cc([C@@H](N)CCSC)nn3)CC2)n1	nt	10%	nt	-3	nt	nt	-1.3%
CS(=O)(=O)N(Cc1ccc(Cl)cc1)c1ccc(C(=O)NCCC2=CCCCC2)cc1	-5%	13%	3.6	8	17%	-16	0.7%
NC(=O)CC(NC(=O)c1ccc(Br)cc1)c1ccc(NC2CCCCCC2)c([N+](=O)[O-])c1 (configuration not stated)	nt	-24%	-7.2	-1	1%	-14	1.0%
O=C(O)c1ccc2c(c1)N(Cc1ccccc1)C(=O)c1ccccc1S2=O (configuration not stated)	14%	-1%	-0.2	5	15%	6	-0.3%
O=C(N/N=C/c1ccc([N+](=O)[O-])cc1)c1cc2ccccc2o1	-8%[15.4 µM]	-22%	-0.2	-1	10%	-4	0.3%
COC(=O)C1CC2(C(=O)OC)CC(C(=O)OC)(CC(C(=O)OC)C2=O)C1=O (configuration not stated)	8%[15.4 µM]	-3%	nt	4	nt	nt	0.8%
COC(CNC(=O)C1CCC(CNS(=O)(=O)c2c(C)cc(C)cc2C)CC1)OC (configuration not stated)	?	0%	3.3	nt	5%	13	-0.3%
CCCn1nnc(NC(=O)c2cc(Br)ccc2OC)n1	15%	5%	6.5	-1	13%	-10	-0.4%
O=C(OC1CCS(=O)(=O)c2sccc21)c1ccccc1 (configuration not stated)	?	-8%	-2.4	-1	5%	5	-2.2%
COc1ccc(S(=O)(=O)NCC2CC3C=CC2C3)cc1OC (configuration not stated)	-33%[inhibitor]	12%	nt	14	18%	5	3.7%
S=c1[nH]ncc2ccccc12	7%	3%	-2.6	16	-18%	5	-0.5%
COc1cc(/C=N/NC(=O)c2cnn3c(C)cc(-c4ccccc4)nc23)ccc1O	?	-3%	6.9	-14	18%	4	2.3%
CCN(CC1COc2ccccc2O1)C(=S)Nc1ccc(F)cc1 (configuration not stated)	33%	11%	3.4	nt	9%	-4	0.5%
Cc1noc(/C=C/N(C)C)c1S(=O)(=O)N1CCCC(C(=O)NCc2ccc(Cl)cc2)C1 (configuration not stated)	?	-10%	?	-13	21%	-2	-2.3%
COc1ccc(CCNC(=O)c2cc(C)oc2C)cc1	-5%	3%	nt	-2	0%	16	-1.1%
C=CCNc1nc(=S)[nH]c2cc(OC)c(OC)cc12	?	25%	0.1	-74*	-11%	14	nt
CC(OC(=O)c1ccc2ncsc2c1)C(=O)N(C)C1CCCCC1 (configuration not stated)	18%	7%	nt	7	nt	-9	3.1%
CC(C)(C)c1ccc(C(=O)Nc2nonc2-c2nc3ccccc3[nH]2)cc1	18%	4%	2.4	0	1%	1	-5.3%
O=C(CNC(=O)c1ccc2c(c1)OCO2)N/N=C/c1cc(Br)ccc1O	?	-8%	1.7	-18	20%	-3	nt
Cc1ccc(NC(=O)COC(=O)c2ccc(Cl)nc2)cc1S(=O)(=O)N1CCCCC1	25%	6%	nt	-23	nt	-15	-3.9%
Cc1ccc(N2C(=O)CC(Sc3ncccn3)C2=O)cc1C (configuration not stated)	4%	0%	2.0	nt	16%	4	-1.4%
C=CCn1c(C)nnc1SCC(=O)NC1CC1	0%	3%	nt	6	13%	1	-1.2%
N/C(=N\OC(=O)c1cc(Cl)ccc1Cl)c1cccnc1	6%	-6%	5.7	4	-15%	-2	2.5%
COCCNC(=O)CSc1nc2cc3c(cc2c(=O)n1CCCC(=O)NCCc1ccc(OC)c(OC)c1)OCO3	-4%[15.4 µM]	8%	0.4	4	18%	21	-3.5%&-4.5%
Cn1c(=O)c([N+](=O)[O-])c(NCc2ccccc2)c2ccccc21	0%	-10%	5.0	-13	1%	15	?
Cc1cccc(C)c1NC(=O)COC(=O)/C=C/c1ccc(S(=O)(=O)N2CCOCC2)cc1	8%	9%	nt	8	nt	nt	1.2%
O=C(COC(=O)c1cccc(S(=O)(=O)N2CCCC2)c1)Nc1ccccc1	-11%[15.4 µM]	nt	0.8	-8	-3%	3	nt
Cc1ccc(Nc2n[nH]c(C)c2[N+](=O)[O-])cc1C	-9%	-8%	-0.3	-13	6%	2	-2.5%
COc1ccc(C(=O)N2CCN(S(=O)(=O)c3ccccc3)CC2)c(OC)c1	-66%[inhibitor]	3%	0.1	5	16%	-3	3.3%
CN1CCN(Cc2nc3ccccc3n2C)CC1CCO (configuration not stated)	8%	0%	-5.8	-19	16%	13	0.6%
CC(C)C(c1nnnn1CCc1ccccc1)N1CCOCC1 (configuration not stated)	5%	10%	5.5	4	-6%	-7	0.4%
COc1ccc(S(=O)(=O)N2CCC(C(=O)N[C@@H](C)C(=O)NCc3cccnc3)CC2)cc1	-84%	nt	nt	3	nt	nt	-3.9%
COc1cccc(-c2ccc(NC(=O)C3CCCN(Cc4cnc(C)n4C)C3)cc2)c1 (configuration not stated)	0%	11%	-0.2	-1	-1%	-13	-0.4%
COc1ccc(CNC(=O)C(NS(=O)(=O)c2ccc3c(c2)CCCN3C(C)=O)C(C)C)cc1 (configuration not stated)	4%	0%	1.5	8	15%	2	-3.4%
CN(C)S(=O)(=O)N1CCN(CC(O)COc2ccc(C(=O)c3ccccc3)cc2)CC1 (configuration not stated)	-7%	-9%	1.4	-1	8%	1	1.6%
COc1ccc(-n2nnnc2SCC(=O)c2cc3ccccc3o2)cc1	17%	0%	?	-3	-5%	2	-3.4%

Next section.
Molecule	gsp ag	gsp antagonist	Menin MLL FP FL	CtBP-E1A inh	Sfp inh	TRPV1 potentiator	ClpP mod
CC1(C)CN2C(=O)c3ccccc3C2(C)S1 (configuration not stated)	2%[15.4 µM]	nt	-6.4	-16	2%	16	nt
Cc1ccc(-c2cccc(C(=O)NCCc3ccccc3)n2)c2ccccc12	-10%	-10%	1.4	nt	-17%	17	?
COc1ccc(S(=O)(=O)N(C)C[C@H]2Oc3ccc(NC(=O)NC4CCCCC4)cc3C(=O)N([C@H](C)CO)C[C@@H]2C)cc1	nt	-7%	nt	-7	nt	nt	0.8%
Cc1ccc2c(c1)C1CN(C)CCC1N2S(=O)(=O)c1ccc(C#N)cc1 (configuration not stated)	13%	1%	nt	nt	nt	-6	-0.4%
